Vaccinia stage: blocks a specific stage of Vaccinia orthopoxvirus infection, primary screen, cell-based, single point. Vaccinia-infected cells, mCherry/Venus stage reporter fluorescence; stronger effect = lower value; some inactives read as strong as hits. activity change (mCherry), % (concentration not given with the values). 89,000 tested, 0.01% active;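 active = mCherry past -33% and 40 or more points under the early reporter, replicates agreeing; inconclusive = past -33% without that gap or agreement; tested in A549 cells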;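 note: scaled between vehicle wells and reference inhibitor wells; 23 nL library stock went into each well; one replicate is shown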
Vaccinia stage Venus: recorded beside Vaccinia stage, whose call it bears; activity change (Venus), %; measured here: Venus reporter, other viral stage;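 negative = less Venus signal; first of two replicates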
Numbers without * were called inactive; ? = inconclusive; / = no result given; & = joins results of further samples. An excerpt. The share of hits here may be higher or lower than overall.

SMILES | Vaccinia stage | Vaccinia stage Venus
CC(=O)N1[C@H](C(=O)NCc2ccccc2Cl)[C@@H](CO)[C@@H]2Cn3c(ccc(-c4ccccc4)c3=O)[C@@H]21 | -11 | -9
CO[C@@H]1CN(C)C(=O)c2ccc(NC(=O)c3ccccc3F)cc2OC[C@@H](C)N(C)C[C@H]1C | 5 | 1
COc1ccccc1S(=O)(=O)N[C@@H]1C=C[C@@H](CC(=O)N2CCOCC2)O[C@@H]1CO | -2 | -3
CCCC(=O)Nc1ccc2c(c1)C(=O)N(C)C[C@H](OC)[C@H](C)CN(CCc1ccccc1)[C@@H](C)CO2 | -1 | -7
C/C=C/c1ccc([C@@H]2[C@H](C#N)N(C(=O)NC3CCCC3)[C@H]2CO)cc1 | -12 | -8
C[C@@H]1CCCCO[C@@H](CN(C)C(=O)Nc2ccc(F)cc2)[C@H](C)CN([C@H](C)CO)C(=O)c2cc(NC(=O)Nc3ccccc3)ccc2O1 | -13 | -6
Cc1noc(C)c1S(=O)(=O)Nc1ccc2c(c1)C(=O)N([C@@H](C)CO)C[C@H](C)[C@@H](CN(C)C(=O)Nc1ccccc1)OCCCC[C@H](C)O2 | -13 | -20
O=C(C1CCCC1)N1C[C@@H]2[C@H](c3ccccc31)[C@H](CO)N2C(=O)Cc1ccccn1 | -1 | 22
C[C@@H]1CN([C@@H](C)CO)C(=O)c2cccc(NC(=O)c3cnccn3)c2O[C@H]1CN(C)C(=O)Nc1cccc2ccccc12 | 13 | 17
COCC(=O)Nc1ccc2c(c1)[C@H]1C[C@H](CC(=O)NCc3ccc(-c4ccccc4)cc3)O[C@H](CO)[C@H]1O2 | -9 | -13
C[C@H](CO)N1C[C@H](C)[C@H](CN(C)C(=O)Cc2ccncc2)Oc2ncc(Br)cc2C1=O | ? | /
C[C@@H]1CN([C@@H](C)CO)C(=O)CCCn2nncc2CO[C@H]1CN(C)Cc1ccccc1 | 2&7 | 3&5

Nothing new here: an excerpt of the list.
SMILES | Vaccinia stage | Vaccinia stage Venus
CC(=O)N1[C@H](C(=O)NCc2ccccc2Cl)[C@@H](CO)[C@@H]2Cn3c(ccc(-c4ccccc4)c3=O)[C@@H]21 | -11 | -9
CO[C@@H]1CN(C)C(=O)c2ccc(NC(=O)c3ccccc3F)cc2OC[C@@H](C)N(C)C[C@H]1C | 5 | 1

Going on with the list:
SMILES | Vaccinia stage | Vaccinia stage Venus
COc1ccc(S(=O)(=O)N2C[C@H](O)COC[C@H]3O[C@H](CC(=O)NCCCN4CCOCC4)CC[C@@H]32)cc1 | 13 | 8
C[C@@H]1CN([C@H](C)CO)C(=O)Cc2cc(NS(=O)(=O)c3cccs3)ccc2O[C@H]1CN(C)Cc1ccccc1 | -6 | -9
CCCN1C[C@H](C)[C@@H](OC)CN(C)C(=O)c2cc(NC(=O)c3ccccc3)ccc2OC[C@@H]1C | -7 | 0
COC(=O)C[C@@H]1CC[C@@H](NC(=O)c2ccccc2)[C@H](CO)O1 | 12 | 18
O=C(N[C@@H]1C=C[C@@H](CC(=O)N2CCCCC2)O[C@H]1CO)c1ccc2c(c1)OCO2 | -6 | -2
CO[C@@H]1CN(C)C(=O)c2cc(NC(=O)Nc3cc(F)ccc3F)ccc2OC[C@H](C)N(C)C[C@@H]1C | -1 | 6
C[C@@H]1CN([C@@H](C)CO)S(=O)(=O)c2ccc(Br)cc2O[C@H]1CN(C)C(=O)C1CCOCC1 | 15 | 9
CC(C)NC(=O)Nc1cccc2c1O[C@H](CN(C)Cc1ccc(Oc3ccccc3)cc1)[C@H](C)CN([C@@H](C)CO)C2=O | -4 | -9
C[C@@H]1CN([C@@H](C)CO)C(=O)c2cccc(NS(=O)(=O)c3ccc(F)cc3)c2O[C@@H]1CN(C)Cc1ccncc1 | 8 | 6
Cc1ccc(-c2cnc3c(c2)C(=O)N([C@H](C)CO)C[C@H](C)[C@@H](CN(C)C(=O)c2ccc(F)cc2)O3)cc1 | -5 | -7
COc1ccc(S(=O)(=O)Nc2cccc3c2O[C@H](CN(C)Cc2ccc(C(F)(F)F)cc2)[C@H](C)CN([C@H](C)CO)C3=O)cc1 | -16 | -14
C[C@@H]1CN([C@H](C)CO)C(=O)c2cccc(NC(=O)c3nc4ccccc4s3)c2O[C@H]1CN(C)Cc1ccc(C(F)(F)F)cc1 | -18 | -25
C[C@H](CO)N1C[C@H](C)[C@H](CN(C)CC2CCCCC2)OCCCC[C@H](C)Oc2ccc(NC(=O)C3CCCCC3)cc2C1=O | ? | /
C[C@@H]1CN([C@H](C)CO)C(=O)c2cccc(NC(=O)c3ccc(-c4nccs4)cc3)c2O[C@@H]1CN(C)Cc1ccc2c(c1)OCO2 | -15 | -18
C[C@H]1CN([C@@H](C)CO)C(=O)c2cc(C#CC3(O)CCCC3)cnc2O[C@@H]1CN(C)Cc1cccnc1 | 14 | 9
COc1ccccc1-c1cn(CC[C@@H]2CC[C@H](NC(=O)NC(C)C)[C@H](CO)O2)nn1 | 7 | 13
C[C@@H]1CCCCO[C@H](CN(C)C(=O)Nc2ccc(F)cc2)[C@@H](C)CN([C@H](C)CO)C(=O)c2cc(NC(=O)Nc3ccc4c(c3)OCO4)ccc2O1 | 3 | 1
COc1ccc(-c2ccc3n(c2=O)C[C@@H]2[C@@H](CO)[C@H](C(=O)NCCN4CCCCC4)N(C)[C@H]32)cc1 | 21 | 11
COCC#Cc1cnc2c(c1)C(=O)N([C@@H](C)CO)C[C@H](C)[C@H](CN(C)C(=O)CN1CCOCC1)O2 | 20 | 18
C[C@@H]1CCCCO[C@@H](CN(C)C(=O)c2ccccc2)[C@H](C)CN([C@H](C)CO)C(=O)c2cc(NS(=O)(=O)c3cn(C)cn3)ccc2O1 | 15 | 6
O=C(O)[C@H]1[C@H](CO)[C@H]2Cn3c(ccc(-c4cccc(F)c4)c3=O)[C@@H]1N2CCc1ccccc1 | -4 | 4
CN(C)CC(=O)N[C@@H]1CC[C@@H](CCn2cc(C3CCCCC3)nn2)O[C@H]1CO | -6 | 5
COc1ccc(S(=O)(=O)Nc2ccc3c(c2)C(=O)N([C@@H](C)CO)C[C@@H](C)[C@H](CN(C)C(=O)C2CCCCC2)OCCCC[C@H](C)O3)cc1 | ? | /
C[C@@H]1CN([C@H](C)CO)C(=O)c2cc(NC(=O)Nc3ccc4c(c3)OCO4)ccc2O[C@@H](C)CCCCO[C@H]1CN(C)C(=O)C1CCCCC1 | -32 | -22
C[C@H](CO)N1C[C@H](C)[C@@H](CN(C)CC2CCCCC2)Oc2ccc(NC(=O)Nc3ccc4c(c3)OCO4)cc2CC1=O | ? | /
CO[C@@H]1CN(C)C(=O)c2ccc(NS(C)(=O)=O)cc2OC[C@H](C)N(C(=O)CN(C)C)C[C@H]1C | 8 | 6
C[C@H](CO)N1C[C@H](C)[C@@H](CN(C)S(C)(=O)=O)Oc2ccc(NC(=O)NC3CCCCC3)cc2CC1=O | 23 | 13
C[C@@H]1CN([C@@H](C)CO)C(=O)c2cccc(NC(=O)C3CCCCC3)c2O[C@H]1CN(C)C(=O)NC1CCCCC1 | 4 | 3
CCO[C@@H]1OC(C(=O)N2CCOCC2)=C[C@H](c2ccc(Br)cc2)[C@H]1CCCO | -8 | -11
O=C(C[C@H]1C=C[C@@H](NC(=O)Nc2ccc(C(F)(F)F)cc2)[C@H](CO)O1)NCCN1CCCC1 | -21 | -14
COc1ccc(-c2ccccc2[C@H]2[C@@H](CO)N(C(=O)C3CCCC3)[C@H]2C#N)cc1 | 1 | 11
CC(C)NC(=O)Nc1ccc2c(c1)C(=O)N([C@H](C)CO)C[C@@H](C)[C@@H](CN(C)Cc1ccc(C(F)(F)F)cc1)OCCCC[C@@H](C)O2 | ? | /
C[C@H]1CN([C@@H](C)CO)C(=O)c2cc(Br)cnc2O[C@@H]1CN(C)Cc1ccncc1 | 29 | 13
Cc1ccc(S(=O)(=O)Nc2ccc3c(c2)C(=O)N([C@H](C)CO)C[C@H](C)[C@H](CN(C)Cc2ccc(C(=O)O)cc2)OCCCC[C@H](C)O3)cc1 | 21 | 14
C[C@H](NC(=O)C[C@@H]1CC[C@@H](NC(=O)Nc2ccc3c(c2)OCO3)[C@H](CO)O1)c1ccccc1 | -11 | 0
COc1ccc(S(=O)(=O)Nc2ccc3c(c2)C(=O)N([C@@H](C)CO)C[C@H](C)[C@@H](CN(C)C(=O)Nc2ccc(F)cc2)O3)cc1 | 14 | 15
CN(C)C(=O)[C@H]1[C@H](CO)[C@H]2Cn3c(ccc(-c4cccc(F)c4)c3=O)[C@@H]1N2Cc1ccccc1 | 0 | 3
O=C(Nc1cc(F)ccc1F)N[C@@H]1CC[C@H](CCNC(=O)c2cnccn2)O[C@H]1CO | 2 | 3
Cc1ccccc1NC(=O)C[C@H]1CC[C@H]2[C@@H](COc3ccc(NC(=O)NC(C)C)cc3C(=O)N2C)O1 | -2 | -4
COc1ccc(NC(=O)Nc2ccc3c(c2)CC(=O)N([C@H](C)CO)C[C@H](C)[C@H](CN(C)S(=O)(=O)c2ccc(Cl)cc2)O3)cc1 | ? | /
CC(=O)Nc1c(C#N)c(-c2ccccc2)c(C#N)c(=O)n1-c1ccc(C)cc1 | 9 | 12
O=C(N[C@@H]1CC[C@H](CCNC(=O)C2CCCC2)O[C@H]1CO)c1ccncc1 | 3 | -2
O=C(C[C@@H]1C[C@H]2c3cc(NC(=O)Nc4ccccc4)ccc3O[C@H]2[C@@H](CO)O1)NCc1ccncc1 | 11 | 7
C[C@@H]1CN([C@H](C)CO)C(=O)c2cc(NS(=O)(=O)c3ccccc3)ccc2O[C@@H]1CN(C)CC1CC1 | 5 | 2
CCCC(=O)Nc1ccc2c(c1)OC[C@@H](C)N(Cc1nccs1)C[C@H](C)[C@@H](OC)CN(C)C2=O | 2 | 0
CCC(=O)N(C)C[C@@H]1Oc2ncc(-c3ccc(C)cc3)cc2C(=O)N([C@H](C)CO)C[C@@H]1C | 9 | 2
C[C@@H]1CCCCO[C@H](CN(C)CC2CCCCC2)[C@H](C)CN([C@H](C)CO)C(=O)c2cc(NC(=O)Nc3cccc4ccccc34)ccc2O1 | -29 | -22
Cc1ccccc1S(=O)(=O)N1CC(=O)N2[C@H](C1)[C@H](c1ccc(C#CCN(C)C)cc1)[C@@H]2CO | 6 | 4

Twelve compounds out of the list, ordered by number of heavy atoms, lowest first:
SMILES | Vaccinia stage | Vaccinia stage Venus
O=C(N[C@@H]1CC[C@H](CCNC(=O)C2CCCC2)O[C@H]1CO)c1ccncc1 | 3 | -2
CC(=O)Nc1c(C#N)c(-c2ccccc2)c(C#N)c(=O)n1-c1ccc(C)cc1 | 9 | 12
C[C@H]1CN([C@@H](C)CO)C(=O)c2cc(Br)cnc2O[C@@H]1CN(C)Cc1ccncc1 | 29 | 13
O=C(Nc1cc(F)ccc1F)N[C@@H]1CC[C@H](CCNC(=O)c2cnccn2)O[C@H]1CO | 2 | 3
CCC(=O)N(C)C[C@@H]1Oc2ncc(-c3ccc(C)cc3)cc2C(=O)N([C@H](C)CO)C[C@@H]1C | 9 | 2
C[C@H](NC(=O)C[C@@H]1CC[C@@H](NC(=O)Nc2ccc3c(c2)OCO3)[C@H](CO)O1)c1ccccc1 | -11 | 0
CCCC(=O)Nc1ccc2c(c1)OC[C@@H](C)N(Cc1nccs1)C[C@H](C)[C@@H](OC)CN(C)C2=O | 2 | 0
C[C@@H]1CN([C@H](C)CO)C(=O)c2cc(NS(=O)(=O)c3ccccc3)ccc2O[C@@H]1CN(C)CC1CC1 | 5 | 2
O=C(C[C@@H]1C[C@H]2c3cc(NC(=O)Nc4ccccc4)ccc3O[C@H]2[C@@H](CO)O1)NCc1ccncc1 | 11 | 7
COc1ccc(S(=O)(=O)Nc2ccc3c(c2)C(=O)N([C@@H](C)CO)C[C@H](C)[C@@H](CN(C)C(=O)Nc2ccc(F)cc2)O3)cc1 | 14 | 15
COc1ccc(NC(=O)Nc2ccc3c(c2)CC(=O)N([C@H](C)CO)C[C@H](C)[C@H](CN(C)S(=O)(=O)c2ccc(Cl)cc2)O3)cc1 | ? | /
Cc1ccc(S(=O)(=O)Nc2ccc3c(c2)C(=O)N([C@H](C)CO)C[C@H](C)[C@H](CN(C)Cc2ccc(C(=O)O)cc2)OCCCC[C@H](C)O3)cc1 | 21 | 14

Continuation:
SMILES | Vaccinia stage | Vaccinia stage Venus
COCC#Cc1ccc2c(c1)O[C@@H](CN(C)C(=O)C1CC1)[C@H](C)CN([C@H](C)CO)S2(=O)=O | 10 | 1
C[C@@H]1CN([C@@H](C)CO)C(=O)c2cc(NC(=O)C3CCCCC3)ccc2O[C@H]1CN(C)CC1CCCCC1 | -8 | -2
COc1ccc(S(=O)(=O)Nc2ccc3c(c2)C(=O)N([C@H](C)CO)C[C@H](C)[C@H](CN(C)Cc2ccc(C(F)(F)F)cc2)OCCCC[C@H](C)O3)cc1 | ? | /
CCCC#Cc1ccc([C@@H]2[C@H](CO)N3C(=O)CN(C(=O)CN4CCOCC4)C[C@@H]23)cc1 | 2 | -1
CC(C)C#Cc1ccc2c(c1)O[C@H](CN(C)C(=O)c1cccnc1)[C@@H](C)CN([C@@H](C)CO)S2(=O)=O | 15 | 8
Cc1noc(C)c1NC(=O)N[C@@H]1C=C[C@@H](CC(=O)N2CCCCC2)O[C@@H]1CO | 12 | 8
CC(C)CC#Cc1cnc2c(c1)C(=O)N([C@@H](C)CO)C[C@@H](C)[C@H](CN(C)C(=O)C1CCOCC1)O2 | 3 | 1
CCCNC(=O)C[C@@H]1CC[C@H]2[C@H](COc3ccc(NC(=O)Nc4c(C)noc4C)cc3C(=O)N2C)O1 | 5 | -8
CCS(=O)(=O)N1CC2(C1)[C@H](c1ccccc1)[C@@H](CO)N2C(=O)C1CC1 | 5 | 7
CCCNC(=O)N(C)C[C@@H]1Oc2ncc(C#Cc3ccccc3F)cc2C(=O)N([C@@H](C)CO)C[C@@H]1C | 1 | 2
CCCNC(=O)N1CC2(C1)CN(Cc1ccccc1)[C@@H](CO)c1[nH]c3cc(OC)ccc3c12 | 10 | 4
O=C(C[C@H]1CC[C@H]2[C@@H](COC[C@H](O)CN2S(=O)(=O)c2ccc(F)cc2)O1)NCC1CCCCC1 | -8 | -3
CC(C)CC#Cc1ccc2c(c1)O[C@H](CN(C)CC1CCOCC1)[C@@H](C)CN([C@H](C)CO)S2(=O)=O | -28 | -34

Screens: PubChem, Broad Institute
